CHT block: inhibitors of human choline transporter CHT | CHT-expressing cells, membrane potential dye, choline response; active compounds read low | B-score at 10 µM | 310,000 tested, 0.86% active | Q9GZV3 | AID 488975;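 active = B-score over 3 SD under the library average, and starting fluorescence ratio not unusually high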;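 note: choline stimulus applied at its EC90 after an EC20 pre-addition; B-score computed on integrated fluorescence ratio after choline addition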
Calls only; i = inactive.

SMILES	CHT block
C1CCCN(C2CCNCC2)CC1	i
COc1cc(O)cc2c1C(=O)OC(C)CCCC(=O)CCC/C=C\2 (stereo not drawn)	i
CC(=O)O[C@@]12CO[C@@H]1C[C@H](OC1OCC(O)C(O)C1O)[C@@]1(C)C(=O)[C@H](O)C3=C(C)[C@@H](OC(=O)[C@H](O)[C@@H](NC(=O)c4ccccc4)c4ccccc4)C[C@@](O)([C@@H](OC(=O)c4ccccc4)C12)C3(C)C (stereo partly drawn)	i
CC(=O)N1CN2CN(C(C)=O)CC(C(=O)c3ccccc3)(C2)C1	i
C=CCn1c(O)c(C(C)=NCc2ccc3c(c2)OCO3)c(=O)[nH]c1=O	i
C[C@]12CC[C@H](O)CC1=CC[C@@H]1[C@@H]2CC[C@]2(C)C(=O)CC[C@@H]12	i
CCCCn1c(O)c(C(CC)=NCCCn2ccnc2)c(=O)[nH]c1=O	i
CCCCCCn1c(O)c(C=NCCCn2ccnc2)c(=O)[nH]c1=O	i
c1ccc2sc(C3CCCNC3)nc2c1 (stereo not drawn)	i
CN(C)c1nc(N(C)C)nc(N(C#N)CCCl)n1	i
CC(=O)O[C@H]1C(=O)[C@@]2(C)C([C@H](OC(=O)c3ccccc3)[C@]3(O)C[C@H](O)C(C)=C1C3(C)C)[C@]1(OC(C)=O)CO[C@@H]1C[C@H]2O (stereo partly drawn)	i
O=C(O)CC[N+](=O)[O-]	i
COc1cccc(C(=O)N2CCC3(CC2)OCCO3)c1	i
CCn1c(O)c(N=Nc2ccc(S(=O)(=O)N3CCOCC3)cc2)c(=O)n(CC)c1=S	i
CC(C(=O)c1ccc2ccccc2c1)N1CCCCC1 (stereo not drawn)	i
CCCCCCCC(=O)NC(Oc1ccccc1[N+](=O)[O-])C(Cl)(Cl)Cl (stereo not drawn)	i
CN1CC(C(=O)c2ccc(Cl)cc2)C(c2ccc(N(C)C)cc2)C1 (stereo not drawn)	i
CCCC1(CCC)C(=O)NC(=Nc2ccccc2)NC1=O	i
Cc1cc(=O)n(-c2ccccc2)n1-c1ccccc1	i
FC(F)(F)c1ccccc1CNCCc1c[nH]c2ccccc12	i
CCN(CC)P(=O)(Oc1cccc(C)c1)N(CC)CC	i
CC(C)NCC(O)c1ccc(C2CCCC2)cc1 (stereo not drawn)	i
CN1CCCC(C(=O)c2ccc(Cl)cc2)C1 (stereo not drawn)	i
CCOC(=O)c1c(C)n(Cc2ccco2)c2c1cc(O)c1ccccc12	i
O=C(c1cccc(C(F)(F)F)c1)C1CCCN(Cc2ncc[nH]2)C1 (stereo not drawn)	i
O=C(COC(=O)Cc1ccccc1)Nc1ncc(Cl)cc1Cl	i
CCn1c(O)c(C=NCCc2c[nH]c3ccccc23)c(=O)[nH]c1=O	i
CCC12CN3CCN(CC(C3)/C1=N/NC(=O)c1ccncc1)C2	i
C=CCn1c(O)c(/C=N/N2CCOCC2)c(=O)[nH]c1=S	i
c1cncc(C2CCCN2)c1 (stereo not drawn)	i
O=C(CN1CC(c2ccccc2)CC1=O)NCc1ccc(F)cc1 (stereo not drawn)	i
O=C(CCCOc1ccc(Cl)cc1Cl)N1CCC2(CC1)OCCO2	i
COc1ccc(N2C(=O)CC(N3CC=C(c4ccccc4)CC3)C2=O)cc1 (stereo not drawn)	i
COC(=O)Cn1cc(/C=C2\C(=O)NC(=O)N(c3ccccc3)C2=O)c2ccccc21	i
CCn1c(=O)cc(OCC(=O)N2CCN(Cc3ccc4c(c3)OCO4)CC2)c2ccccc21	i
NC(=O)c1cn(C2CCCCC2)c2ccccc2c1=O	i

Six entries drawn at random from the list so far, as already listed:
SMILES	CHT block
O=C(c1cccc(C(F)(F)F)c1)C1CCCN(Cc2ncc[nH]2)C1 (stereo not drawn)	i
O=C(CN1CC(c2ccccc2)CC1=O)NCc1ccc(F)cc1 (stereo not drawn)	i
CCC12CN3CCN(CC(C3)/C1=N/NC(=O)c1ccncc1)C2	i
O=C(CCCOc1ccc(Cl)cc1Cl)N1CCC2(CC1)OCCO2	i
C=CCn1c(O)c(/C=N/N2CCOCC2)c(=O)[nH]c1=S	i
CCn1c(O)c(C=NCCc2c[nH]c3ccccc23)c(=O)[nH]c1=O	i

An excerpt from above in order of count of non-hydrogen atoms, ascending.
SMILES	CHT block
NC(=O)c1cn(C2CCCCC2)c2ccccc2c1=O	i
O=C(COC(=O)Cc1ccccc1)Nc1ncc(Cl)cc1Cl	i
CCC12CN3CCN(CC(C3)/C1=N/NC(=O)c1ccncc1)C2	i
O=C(CN1CC(c2ccccc2)CC1=O)NCc1ccc(F)cc1 (stereo not drawn)	i
COc1ccc(N2C(=O)CC(N3CC=C(c4ccccc4)CC3)C2=O)cc1 (stereo not drawn)	i

Continuation.
SMILES	CHT block
O=C(C1CCCN(c2nnc(-n3cccc3)s2)C1)N1CCC2(CC1)OCCO2 (stereo not drawn)	i
O=C(c1ccc2c(c1)ncn2C1CCCCC1)N1CCC2(CC1)OCCO2	i
CC12CN3CC(C)(CN(C1)C3c1ccncc1)C2=O (stereo not drawn)	i
N#Cc1c(N2CCNCC2)nc(-c2ccco2)c2c1CCCC2	i
Cc1n[nH]c(C)c1CCN	i

Shown bar-delimited: part of the list above.
Structure | CHT block
Cc1n[nH]c(C)c1CCN | i
O=C(c1ccc2c(c1)ncn2C1CCCCC1)N1CCC2(CC1)OCCO2 | i
N#Cc1c(N2CCNCC2)nc(-c2ccco2)c2c1CCCC2 | i

Screens from PubChem.

Not all compounds are listed; most or all hits stand in other tables.
